KAT2A inh – inhibitors of human GCN5L2 histone acetyltransferase. GCN5L2 HAT assay, ThioGlo1 CoA-SH fluorescence. Q92830. 0.21% of 390,000 active. Potency, µM (highest dose often 58.9 µM), inactives show at the top dose activity change, negative = inhibition, actives largely listed as inhibitors; active = well fitted inhibition curve with a large enough effect; inconclusive = small, poorly fitted or top-dose-only effect, or another doubt; inactive = no such curve, though single readings can be large or run the other way
Target sequence (Q92830 whole entry, looked up): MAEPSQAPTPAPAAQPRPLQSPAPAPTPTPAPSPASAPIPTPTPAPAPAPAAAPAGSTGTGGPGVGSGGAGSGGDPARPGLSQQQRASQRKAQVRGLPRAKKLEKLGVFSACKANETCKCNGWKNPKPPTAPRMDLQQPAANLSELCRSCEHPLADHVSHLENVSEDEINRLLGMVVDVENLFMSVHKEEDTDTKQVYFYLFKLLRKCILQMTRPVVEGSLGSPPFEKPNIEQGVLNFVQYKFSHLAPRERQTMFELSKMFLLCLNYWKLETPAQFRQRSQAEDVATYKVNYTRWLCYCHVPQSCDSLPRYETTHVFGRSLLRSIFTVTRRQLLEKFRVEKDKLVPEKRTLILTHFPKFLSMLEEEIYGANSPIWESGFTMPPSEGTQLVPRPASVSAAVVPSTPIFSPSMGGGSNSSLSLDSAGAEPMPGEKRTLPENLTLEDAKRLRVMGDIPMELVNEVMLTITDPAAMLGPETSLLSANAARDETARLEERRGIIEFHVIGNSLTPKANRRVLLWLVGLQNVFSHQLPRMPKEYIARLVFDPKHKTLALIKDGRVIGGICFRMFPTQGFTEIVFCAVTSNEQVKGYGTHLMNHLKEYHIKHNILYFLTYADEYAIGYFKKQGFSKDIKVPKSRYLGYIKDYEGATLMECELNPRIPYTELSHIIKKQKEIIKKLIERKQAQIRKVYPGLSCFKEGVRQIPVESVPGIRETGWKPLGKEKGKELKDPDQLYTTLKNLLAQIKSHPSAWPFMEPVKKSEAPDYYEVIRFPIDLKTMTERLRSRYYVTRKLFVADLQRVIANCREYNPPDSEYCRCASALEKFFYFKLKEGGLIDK
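GCN5L2 (20 nM) in 50mM HEPES pH 7.5, 0.1mM EDTA, 0.01% Tween-20 preincubated 15 min with compounds at room temperature. Reaction started with H3(1-25) 75uM, acetyl-CoA 70uM, ThioGlo1 50uM; CoA-thiol fluorescence (Ex340/Em540) read at 0 and 20 min.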
* marks the source's active call; other numbers are inactive results; ? = inconclusive; & = joins results of further samples; [ ] = another dose, or the depositor's remark. % is set by controls: 0 for no effect and ±100 for the full control effect; potency is the fitted concentration of half-maximal effect. Some of the compounds tested; most or all hits stand in other tables.

> FC(F)(F)C1=CC(c2ccccc2)=NCCN1
  KAT2A inh: -2%
> CCNC(=S)N1CCN(c2ncccn2)CC1
  KAT2A inh: 1%
> Cc1ccc(NC(=O)COC(=O)CCc2c[nH]c(=O)[nH]2)cc1
  KAT2A inh: -14%
> Cc1oncc1C(=O)Nc1cccc(C#N)c1
  KAT2A inh: -7%
> O=C(Nn1cnnc1)C1CCCN1S(=O)(=O)c1ccc(F)cc1 (configuration not stated)
  KAT2A inh: -2%
> CN(C)c1cccc(NC(=O)Cc2ccc(F)cc2)c1
  KAT2A inh: -2%
> COc1ccc(C(c2nnnn2Cc2cccs2)N2CCN(c3ccccc3F)CC2)cc1 (configuration not stated)
  KAT2A inh: -8%
> Nc1cccc(S(=O)(=O)c2ccc(N)c(N)c2)c1
  KAT2A inh: -4%
> Cc1ccc(CNc2nc3ccccc3n3cnnc23)cc1
  KAT2A inh: -1%&-5%
> CC(C)C[C@H](NC(=O)C1(c2ccccc2)CCN(C(=O)OC(C)(C)C)CC1)C(=O)N1CCC[C@H]1C(=O)O
  KAT2A inh: -4%
> CC(=O)c1ccc(NC(=S)NC(C)CCc2ccccc2)cc1 (configuration not stated)
  KAT2A inh: -18%
> O=C(NCc1cccn1Cc1ccccc1)Nc1cccc(C(F)(F)F)c1
  KAT2A inh: -6%
> Cc1cc(C(=O)N/N=C/C=C/c2ccc3c(c2)OCO3)n[nH]1
  KAT2A inh: 2%
> O=C(COC(=O)/C=C/c1ccccc1F)Nc1nnc(-c2ccccc2)o1
  KAT2A inh: -4%
> CCc1ccc(-n2nc(C)c3c(C)cc(=O)n(CC(=O)N(CC)Cc4ccccc4)c32)cc1
  KAT2A inh: -10%

3 consecutive entries out of the list so far, quoted:
> FC(F)(F)C1=CC(c2ccccc2)=NCCN1
  KAT2A inh: -2%
> CCNC(=S)N1CCN(c2ncccn2)CC1
  KAT2A inh: 1%
> Cc1ccc(NC(=O)COC(=O)CCc2c[nH]c(=O)[nH]2)cc1
  KAT2A inh: -14%

New compounds follow
> COCCNC(=O)Nc1ccc2c(c1)N(C)C(=O)CS2
  KAT2A inh: -3%
> Cc1ccc(Nc2cc(-n3nc(C)cc3C)ncn2)c(C)c1
  KAT2A inh: 2%
> Cc1cc(C)n2nc(SC(C)C(=O)NC3CCCCC3C)nc2n1 (configuration not stated)
  KAT2A inh: -1%
> O=C(CNC(=O)c1ccco1)OCc1cccc(Cl)c1
  KAT2A inh: 1%
> CCN(CC)CCNc1nc2cc(OC)c(OC)cc2c2nc(-c3ccccc3)nn12
  KAT2A inh: -3%
> O=C(NC1CCCN(Cc2ccccc2F)C1)c1cccs1 (configuration not stated)
  KAT2A inh: 1%
> COc1ccccc1C(=O)NC(CCSC)C(=O)NCC(c1cccs1)N(C)C (configuration not stated)
  KAT2A inh: -21%
> Cc1cc(C)cc(OCc2nc(-c3cccnc3)no2)c1
  KAT2A inh: -3%
> Cc1c(NS(=O)(=O)c2ccc(N3CCN(C)CC3)c([N+](=O)[O-])c2)c(=O)n(-c2ccccc2)n1C
  KAT2A inh: -8%
> Cc1ccc(-c2nnc3ccc(SCC(=O)N4CCCc5ccccc54)nn23)cc1
  KAT2A inh: -2%
> Cc1nnsc1NC(=O)OCC(C)(C)C
  KAT2A inh: -5%
> CCN1CCN(CC(=O)c2c[nH]c3ccccc23)CC1
  KAT2A inh: -1%
> Cc1occc1-c1nnc(SCC(=O)N2CCCC(C)C2)o1 (configuration not stated)
  KAT2A inh: -6%
> CC1(C)CC(=O)C2=C(C1)NC(=O)CC2c1ccc(N(CCC#N)CCC#N)cc1 (configuration not stated)
  KAT2A inh: -22%
> Nc1cc(Br)c(N)c(Br)c1
  KAT2A inh: 1%

> O=P(O)(C(O)c1ccccc1)C(O)c1ccccc1 (configuration not stated)
  KAT2A inh: -3%
> Cc1ccc(-c2ccc(CO)o2)cc1N
  KAT2A inh: -12%
> COc1cc(NC(=O)CCc2c(C)[nH]c(=O)c(C#N)c2C)cc(OC)c1
  KAT2A inh: -3%
> Cc1ccc(NC(=O)CS(=O)CC(=O)N(c2ccccc2F)C(C)C(=O)NC2CCCC2)cc1 (configuration not stated)
  KAT2A inh: -2%
> O=C(c1noc2c1CCCC2)N1CCOCC1
  KAT2A inh: 1%
> CCC(SC1=N/C(=C/c2ccccc2)C(=O)N1c1ccccc1)C(=O)Nc1cc(C)on1 (configuration not stated)
  KAT2A inh: -12%
> O=C1C=C(c2ccc(Cl)nc2)C[C@@H](c2ccc3c(c2)OCO3)C1
  KAT2A inh: -4%
> Cc1cccc(OCc2nnc(SCC(=O)Nc3cccc(C(=O)N4CCOCC4)c3)n2C)c1C
  KAT2A inh: 1%
> O=C(COc1ncnc2ccccc12)Nc1ccc(Cl)c([N+](=O)[O-])c1
  KAT2A inh: -2%
> CCS(=O)(=O)CCSc1nc2ccccc2s1
  KAT2A inh: -3%
> NC(=O)COc1ccc(C(=O)NCC2(N3CCOCC3)CCCCC2)cc1
  KAT2A inh: 1%
> COC(=O)c1ccc(/C=N/NC(=O)CC(=O)NCc2cccnc2)cc1
  KAT2A inh: -9%
> Cc1c(C(=O)N2CCN(CCc3ccccc3)CC2)oc2ccccc12
  KAT2A inh: -10%
> O=C(Cn1nc(-c2ccccc2F)ccc1=O)Nc1ccc(S(=O)(=O)N2CCCCCC2)cc1
  KAT2A inh: 0%
> CC(C)CC(=O)Nc1ccc(C(=O)NN2C(=O)c3ccccc3C2=O)cc1
  KAT2A inh: -2%

> Cc1ccccc1-n1c(=O)cc(N2CCc3ccccc3C2)[nH]c1=O
  KAT2A inh: -7%
> CCOc1cc(C(=O)OCC(=O)N(C)c2ccccc2)cc(OCC)c1OCC
  KAT2A inh: -6%
> CCN=C1SC(C(=O)Nc2cc(Cl)cc(Cl)c2)CC(=O)N1CC (configuration not stated)
  KAT2A inh: ?
> COC(=O)c1ccc(CSc2nnc(N)s2)o1
  KAT2A inh: -18%
> Cc1ccc(C(=O)OCC(=O)NCC(F)(F)F)cc1C
  KAT2A inh: 0%
> CNc1oc(-c2ccc(F)cc2)nc1S(=O)(=O)c1ccccc1
  KAT2A inh: -2%
> CO/N=C/c1ccc(N2CCN(C(=O)c3cccc(Cl)c3)CC2)c([N+](=O)[O-])c1
  KAT2A inh: 39%[activator]
> CCn1c(CNC(=O)c2cccc(C)c2)nnc1SCC(=O)NC1CCCCC1C (configuration not stated)
  KAT2A inh: ?
> Cc1cc(C)c(C#N)c(N2CCN(c3ccc(F)cc3)CC2)n1
  KAT2A inh: -23%
> CCOC(=O)C1=C(CNCCc2ccc(Cl)cc2)NC(=O)NC1c1cccc([N+](=O)[O-])c1 (configuration not stated)
  KAT2A inh: -13%
> Cc1ccc(-c2ccc(=O)n(CC(=O)NCc3ccc(F)cc3)n2)cc1
  KAT2A inh: -4%&4%
> CC(C)(C)c1ccc(OCC(=O)N/N=C/c2ccc(N3CCOCC3)cc2)cc1
  KAT2A inh: -9%
> CNC(=S)NNC(=O)c1cc(-c2cccnc2)nc2ccccc12
  KAT2A inh: -28%
> CCOC(=O)c1nn(-c2ccccc2)c2nnc(Cc3ccc(C)cc3)c(=O)n12
  KAT2A inh: 3%
> Cc1sc2nc(C3CC3)nc(SCC(=O)N3CC(=O)Nc4ccccc43)c2c1C
  KAT2A inh: -11%

> O=C(NCC(c1ccc2c(c1)OCO2)N1CCN(c2ccccc2)CC1)C(=O)Nc1ccccc1 (configuration not stated)
  KAT2A inh: 2%
> CC1CCN(C(=O)N[C@@H](Cc2ccccc2)C(=O)O)CC1
  KAT2A inh: -1%
> N#Cc1ccccc1CSc1ccccn1
  KAT2A inh: -5%
> CCCn1cc(S(=O)(=O)c2cc(C)ccc2C)c(=O)c2cc(F)c(N3CCOCC3)cc21
  KAT2A inh: -10%
> CC1=C(C(=O)OC2CCCCCC2)C(c2ccccc2Cl)CC(=O)N1 (configuration not stated)
  KAT2A inh: -9%
> COc1ccc(/C=C(/Sc2nnc(-c3ccc(Cl)cc3)o2)C(=O)O)cc1
  KAT2A inh: -1%
> CCN(CCCNC(=O)c1ccc2c(c1)NC(=O)CN2C)c1cccc(C)c1
  KAT2A inh: -2%
> COc1ccc(Cc2nnc(NC(=O)C3CC(=O)N(CCc4ccc(F)cc4)C3)s2)cc1OC (configuration not stated)
  KAT2A inh: -2%
> COCc1cc(C(C)=O)ccc1OCC(=O)Nc1ccc(NC(C)=O)cc1
  KAT2A inh: -3%
> Fc1ccccc1-c1nc(NCc2ccccc2)c2ccccc2n1
  KAT2A inh: 1%
> O=c1c2ccccc2nc(SCc2nnc(-c3ccccc3)o2)n1-c1ccccc1
  KAT2A inh: 0%
> CCOC(=O)C1=C(C)NC(C)=C(C(=O)OCC)C1/C=C/c1ccccc1OC
  KAT2A inh: -6%
> CCSc1nc(-c2ccc(OC)cc2)nc2c1Cc1c(CO)cnc(C)c1O2
  KAT2A inh: 0%
> COc1cc(NC(=O)CC(c2ccc(C)cc2)N2Cc3ccccc3C2=O)cc(OC)c1 (configuration not stated)
  KAT2A inh: -3%
> O=C(Cc1coc2ccc3ccccc3c12)N1CCCC1
  KAT2A inh: -2%

> CCCn1c(/N=C/c2ccc3c(c2)OCO3)nc2ccccc21
  KAT2A inh: ?
> CCC(=O)c1ccc(OCC(=O)NCCc2ccccn2)cc1
  KAT2A inh: -1%
> C[C@@H](O)C(C(=O)N1CCNCC1)n1cc([C@@H](N)CCCCN)nn1 (some centres not stated)
  KAT2A inh: -4%
> CC(O)c1nc2ccccc2n1CCOc1ccccc1 (configuration not stated)
  KAT2A inh: -3%
> N#CCCN(C(=O)CN1CCN(S(=O)(=O)c2ccc(Cl)s2)CC1)c1ccc(F)cc1
  KAT2A inh: -2%
> COc1cccc(N2CCN(S(=O)(=O)c3c(C)[nH]c(C)c3C(=O)N3CCCC3)CC2)c1
  KAT2A inh: 0%
> CCOC(=O)C1C(c2ccccc2O)NC(=O)NC1(O)C(F)(F)F (configuration not stated)
  KAT2A inh: -3%
> COc1ccc(-c2[nH]ncc2CN2CCSCC2)c(OC)c1
  KAT2A inh: -5%
> CCOC(=O)C1=C(COC(=O)/C=C/c2cccc(OC)c2)NC(=O)NC1C (configuration not stated)
  KAT2A inh: -5%
> CCN(CC)CCN1C(=O)C(O)=C(C(=O)c2ccco2)C1c1ccccn1 (configuration not stated)
  KAT2A inh: -5%[0.501 µM]
> CCC1CCCCN1S(=O)(=O)c1ccc(NC(=O)C2CCCO2)cc1 (configuration not stated)
  KAT2A inh: -1%
> Cc1nnc(NC(=O)C(C)Oc2ccc3c(C)cc(=O)oc3c2)s1 (configuration not stated)
  KAT2A inh: 0%
> CN1CCc2c(sc3nc(SCC(=O)N4CCOCC4)n(-c4ccc(Cl)cc4)c(=O)c23)C1
  KAT2A inh: -1%
> COC(C(=O)Nc1cccc([N+](=O)[O-])c1)c1ccccc1 (configuration not stated)
  KAT2A inh: -15%
> O=C(c1cc2c(s1)CCC2)N1CCN(c2ccccc2)CC1
  KAT2A inh: -25%

> CCCN1CCN(C(=O)CCCNC(=O)c2ccc(Cl)cc2)CC1
  KAT2A inh: -3%
> Cc1cc(C(=O)COC(=O)c2ccc(NC(=O)CC#N)cc2)c(C)n1-c1ccc(OC(F)F)cc1
  KAT2A inh: -7%
> CCn1cnc2c1c(=O)n(Cc1cccc(Br)c1)c(=O)n2Cc1ccccc1
  KAT2A inh: -17%
> CCN(CC)C(=O)c1sc2c(c1C)c(=O)n(CCc1ccccc1)c(=O)n2Cc1ccc(F)cc1Cl
  KAT2A inh: -8%
> CCOc1ccc(C(=O)N(CC)CC(=O)Nc2ccc3c(c2)OCCO3)cc1
  KAT2A inh: 1%
> CCCCOc1cccc(/C=C(\C#N)C(=O)NC2CC2)c1
  KAT2A inh: -12%
> Cn1c2c(c(=O)n(C)c1=O)C(c1cccc(O)c1)CC(=O)N2 (configuration not stated)
  KAT2A inh: -11%
> O=C(C1CCCCC1)N1CCc2[nH]c3ccc(F)cc3c2C1
  KAT2A inh: 3%
> Cc1ccc2nc(-c3ccncc3)c(NC3CCCC3)n2c1
  KAT2A inh: -7%

In the list so far, 12 have a Cl atom:
> O=C(CNC(=O)c1ccco1)OCc1cccc(Cl)c1
  KAT2A inh: 1%
> O=C1C=C(c2ccc(Cl)nc2)C[C@@H](c2ccc3c(c2)OCO3)C1
  KAT2A inh: -4%
> O=C(COc1ncnc2ccccc12)Nc1ccc(Cl)c([N+](=O)[O-])c1
  KAT2A inh: -2%
> CCN=C1SC(C(=O)Nc2cc(Cl)cc(Cl)c2)CC(=O)N1CC (configuration not stated)
  KAT2A inh: ?
> CO/N=C/c1ccc(N2CCN(C(=O)c3cccc(Cl)c3)CC2)c([N+](=O)[O-])c1
  KAT2A inh: 39%[activator]
> CCOC(=O)C1=C(CNCCc2ccc(Cl)cc2)NC(=O)NC1c1cccc([N+](=O)[O-])c1 (configuration not stated)
  KAT2A inh: -13%
> CC1=C(C(=O)OC2CCCCCC2)C(c2ccccc2Cl)CC(=O)N1 (configuration not stated)
  KAT2A inh: -9%
> COc1ccc(/C=C(/Sc2nnc(-c3ccc(Cl)cc3)o2)C(=O)O)cc1
  KAT2A inh: -1%
> N#CCCN(C(=O)CN1CCN(S(=O)(=O)c2ccc(Cl)s2)CC1)c1ccc(F)cc1
  KAT2A inh: -2%
> CN1CCc2c(sc3nc(SCC(=O)N4CCOCC4)n(-c4ccc(Cl)cc4)c(=O)c23)C1
  KAT2A inh: -1%
> CCCN1CCN(C(=O)CCCNC(=O)c2ccc(Cl)cc2)CC1
  KAT2A inh: -3%
> CCN(CC)C(=O)c1sc2c(c1C)c(=O)n(CCc1ccccc1)c(=O)n2Cc1ccc(F)cc1Cl
  KAT2A inh: -8%

Screens deposited in PubChem BioAssay by National Center for Advancing Translational Sciences (NCATS).
